Assay outcomes deposited in PubChem BioAssay by National Center for Advancing Translational Sciences (NCATS).
AID923 = qHTS Assay for Allosteric/Competitive Inhibitors of Caspase-1: Spectroscopic Profiling in AFC Spectral Region; compound fluorescence, AFC spectral region (405/520 nm); almost no hit is shown here; Potency, µM (top dose mostly 57.5 µM), without a hit: top-dose fluorescence increase, actives largely listed as activators; 75,000 compounds, 1.1% hits; AID 923, 2007; active means well fitted activation curve with a large enough effect; inconclusive means small, poorly fitted or top-dose-only effect;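 further: potency means the concentration at half of the fitted maximal effect; 0% is about no effect; scaled to a free AFC standard on each plate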
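Compound autofluorescence profiled at 405 nm ex/520 nm em during kinetic caspase 1 run (50 nM enzyme, 5 uM Ac-WEHD-AFC, HEPES pH 7.5, 10 mM DTT). Titration up to 57 uM; baseline from regression intercept, normalized to AFC standard curve.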
A488 autofl = compound fluoresces in the A488 spectral region; compound autofluorescence, A488 spectral region, dye equivalency; stronger effect = higher value; 59,000 compounds, 0.1% hits; max dye equivalency, M; AID 591; active = above 10 nM dye equivalent; inconclusive = 1 to 10 nM; inactive = 1 nM or less; about half of its hits are not listed in these tables;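 further: highest value over a series up to 38 µM; compound alone in buffer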
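Spectroscopic profiling in the A488 region: compounds in pH 8.0 Tris (100 mM), 15 min RT, CCD imaging with 480 nm excitation and 540 nm emission; responses normalized against A488 dye standards.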
A647 autofl = A647 region autofluorescence. Compound fluorescence, A647 channel (570/671 nm), Tris buffer. max dye-equivalent concentration, M. 59,000 tested, under 10 active. AID 592; active means above 1 µM dye equivalent; inconclusive means 0.1 to 1 µM; inactive means 0.1 µM or less;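 further: values scaled relative to a standard on each plate; highest value over a series up to 38 µM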
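Compounds pinned into 100 mM Tris pH 8.0, 15 min at room temperature, then read with 570 nm excitation/671 nm emission filters. Fluorescence normalized to an on-plate six-point Alexa 647 standard curve, giving dye-equivalent concentration per compound concentration.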
TSHR ag = agonists of human thyroid stimulating hormone receptor. AID 926. HEK293-CNG-TSHR cells (CNG channel as cAMP sensor), membrane potential dye, cAMP. Potency, µM (doses to about 57.1 µM), without a hit: at the top dose activation, most hits filed as activators. 73,000 compounds, 0.48% hits; active = well fitted activation curve of enough size with the parental cells flat; inconclusive = any curve in the parental cells; inactive = parental cells flat and receptor cells flat or falling; further: potency means the concentration at half of the fitted maximal effect; % of control where 0% means no effect; weak receptor curves with flat parental cells got no call and are not listed
Target sequence (P16473 whole entry, looked up): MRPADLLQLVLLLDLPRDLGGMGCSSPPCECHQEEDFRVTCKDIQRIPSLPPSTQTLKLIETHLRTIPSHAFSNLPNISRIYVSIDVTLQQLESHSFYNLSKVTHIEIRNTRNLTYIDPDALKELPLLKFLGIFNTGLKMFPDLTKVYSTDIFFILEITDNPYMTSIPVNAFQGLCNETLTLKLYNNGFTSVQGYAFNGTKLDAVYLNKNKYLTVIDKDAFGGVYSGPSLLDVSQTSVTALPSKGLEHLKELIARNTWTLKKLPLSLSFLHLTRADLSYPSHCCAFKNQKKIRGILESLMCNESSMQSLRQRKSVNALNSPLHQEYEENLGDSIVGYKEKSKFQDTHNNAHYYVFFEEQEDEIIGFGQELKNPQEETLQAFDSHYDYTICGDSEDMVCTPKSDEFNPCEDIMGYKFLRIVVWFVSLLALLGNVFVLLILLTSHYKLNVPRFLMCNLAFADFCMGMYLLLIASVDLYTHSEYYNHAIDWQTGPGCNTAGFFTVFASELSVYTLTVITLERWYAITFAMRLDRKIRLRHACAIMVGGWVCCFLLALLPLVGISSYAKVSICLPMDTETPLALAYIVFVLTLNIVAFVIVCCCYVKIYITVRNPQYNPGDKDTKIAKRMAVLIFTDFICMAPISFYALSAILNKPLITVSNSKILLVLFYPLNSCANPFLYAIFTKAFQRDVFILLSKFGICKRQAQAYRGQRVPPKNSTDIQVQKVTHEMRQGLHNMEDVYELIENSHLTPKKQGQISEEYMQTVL
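HEK 293 cells stably expressing TSHR and a cAMP-gated CNG channel; parental CNG-only cells as counterscreen. Cells preloaded 60 min with membrane potential dye plus 100 uM RO 20-1724, then compound 30 min; fluorescence read at 590 nm.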
Resorufin fluor = resorufin region autofluorescence. Compound fluorescence, resorufin region 547/598 nm, buffer; stronger effect = higher value. AID 588. max dye-equivalent concentration, M. 59,000 compounds, 0.04% hits; active = above 10 nM dye equivalent; inconclusive = 1 to 10 nM; inactive = 1 nM or less; a few of its hits are not listed in these tables; further: highest value over a series up to 38 µM
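Dye-equivalent concentration values derive from comparing each well's 547/598 nm fluorescence against resorufin standards included on every plate. Incubation was 15 min at room temperature in 100 mM Tris, pH 8.0.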
Starred values were filed as active, the others as inactive; i = inactive; u = inconclusive; x = not tested or not shown; [ ] = another dose, or the depositor's remark. These rows are one share of the data; count on the stated rates, not on these rows.

no.	smiles	AID923	A488 autofl	A647 autofl	TSHR ag	Resorufin fluor
1	CC1(C)Cc2c(c(N3CCCC3)nc3sc4c(N5CCN(CCO)CC5)ncnc4c23)CO1	0.4%	i	2.3e-09	9%	i
2	O=C(Nc1ccccc1C(F)(F)F)N1CCC(N2CCCCC2)CC1	-0.3%	i	3.3e-08	1%[11.4 µM]	i
3	CCc1noc(C)c1C(=O)N1CC(C)OC(C)C1 (configuration not stated)	0.2%	i	1e-09	-2%	i
4	COC(=O)c1ccc(CN(c2ccc(C)cc2)S(=O)(=O)c2ccc3c(c2)OCCO3)o1	-1.9%	i	3.4e-09	x	i
5	CCCN1C=CC(=C2C(=O)c3ccccc3C2=O)C=C1	0.7%	x	x	-7%	x
6	O=C(CSc1nc2ccccc2o1)N1CCN(c2ccc(Cl)cc2)CC1	0.3%	i	3.9e-08	14%	i
7	CS(=O)(=O)Nc1cccc(-c2cc(NCc3ccccc3)ncn2)c1	0.9%	i	2.5e-08	4%	i
8	Cc1cccc(-c2noc(CN(C(=O)C34CC5CC(CC(C5)C3)C4)C(C)C)n2)c1	-1.7%	i	2.8e-08	12%	i
9	Cc1cc(C)nc(SCc2n[nH]c(=S)n2C)n1	0.5%	i	1.5e-08	5%	i
10	CCC(C(=O)Nc1nnc(-c2ccco2)s1)c1ccccc1 (configuration not stated)	0.0%	i	9.6e-09	-1%	i
11	O=S(=O)(C[C@H](O)C(Cl)(Cl)Cl)NNc1ccccc1	2.9%[11.5 µM]	i	1e-09	4%[11.4 µM]	i
12	Cc1cccc(-n2ncc3c(NCCN4CCOCC4)ncnc32)c1	x	i	4.8e-09	x	i
13	CN(O)/C=c1/ccc2c(n1)C(=O)C=CC=2	1.1%	i	2.6e-08	4%	i
14	CN(Cc1ccccc1)C(=O)CCC(=O)N(C)Cc1ccccc1	2.7%	x	x	-3%[11.4 µM]	x
15	Cc1ccccc1CN1CCNC(=O)C1CC(=O)O (configuration not stated)	1.8%	x	x	2%	x
16	Nc1nc2ccc(S(=O)(=O)c3ccc4nc(N)sc4c3)cc2s1	-2.0%	i	1.9e-08	25%	i
17	COc1ccc(S(=O)(=O)N(CC(=O)Nc2cc(C)on2)Cc2ccccc2)cc1	-1.4%	i	5.2e-09	u	i
18	CN1C(=O)/C(=C2/C=CC=CN2C)OC1=S	-0.6%	x	x	-6%[11.4 µM]	x
19	CCOC(=O)c1[nH]c(=O)[nH]c1CSCCO	2.6%	x	x	9%[11.4 µM]	x
20	CCN1C(=O)[C@H]2[C@H]3[C@H](O)[C@H](O)C/C(=N/NC(=O)OCc4ccccc4)[C@H]3CC[C@@H]2C1=O	-1.3%[11.5 µM]	x	x	-6%[11.4 µM]	x
21	COC(=O)c1sc(S(=O)(=O)NCc2cccs2)c(C(=O)OC)c1C	-1.8%	i	1e-09	15%	i
22	CCc1nnc(NC(=O)CSc2nccn2-c2ccccc2)s1	-3.0%	i	3.5e-09	1%[11.4 µM]	i
23	COc1ccc(C(=O)[C@H](Br)[C@H](Br)C(=O)O)cc1	-0.3%[11.5 µM]	i	3.5e-08	10%[11.4 µM]	i
24	Cc1cc(C(=O)Nc2ccc(C(=O)O)cc2)c(-c2ccccc2)o1	-3.2%	i	1.4e-08	-5%	i
25	O=C(c1cnccn1)N1CCC2(CCCN(c3cccc(-c4ccccc4)c3)C2)CC1	1.4%	i	6.7e-09	u	i

Molecules from the list above with a furan ring, fused or not:
no.	smiles	AID923	A488 autofl	A647 autofl	TSHR ag	Resorufin fluor
4	COC(=O)c1ccc(CN(c2ccc(C)cc2)S(=O)(=O)c2ccc3c(c2)OCCO3)o1	-1.9%	i	3.4e-09	x	i
10	CCC(C(=O)Nc1nnc(-c2ccco2)s1)c1ccccc1 (configuration not stated)	0.0%	i	9.6e-09	-1%	i
24	Cc1cc(C(=O)Nc2ccc(C(=O)O)cc2)c(-c2ccccc2)o1	-3.2%	i	1.4e-08	-5%	i

Following part
no.	smiles	AID923	A488 autofl	A647 autofl	TSHR ag	Resorufin fluor
26	Cc1ccc(NC(=O)CSC2=C(C#N)C(c3ccc4c(c3)OCO4)CC(=O)N2)cc1C (configuration not stated)	x	i	1e-09	x	i
27	NC(=O)c1cc(N2C(=O)C3CC=CCC3C2=O)ccc1N1CCCCC1 (configuration not stated)	0.4%	x	x	15%	x
28	CCCn1c(N2CCN(S(=O)(=O)Cc3ccccc3)CC2)nc2ccccc21	0.2%	i	1e-09	u	i
29	CCN(CC)c1ccc(C(=O)Nc2cccc(F)c2)cc1	5.3%	x	x	10%	x
30	COCCn1c(C2CCCCC2)nc2sc3ccccc3c(=O)c2c1=O	1.4%	i	1e-08	25%	i
31	O=C(CCCn1c(=S)[nH]c2ccccc2c1=O)NC1CCCC1	-1.5%	i	2e-08	11%	i
32	Cc1ccccc1Cn1nc(C)c(NC(=O)c2cc3nc(-c4ccco4)cc(C(F)(F)F)n3n2)c1C	16%	i	6.5e-08	8%	i
33	COc1cccc(N2C(=O)C(CC(=O)Nc3ccccc3)N(C3CCCCC3)C2=O)c1 (configuration not stated)	1.0%	i	1e-09	-2%	i
34	CCn1c(SCC(=O)Nc2ccc3c(c2)OCCO3)nc2c(c1=O)SC(C)C2 (configuration not stated)	1.6%	i	1.3e-08	-3%	i
35	Cc1ccccc1Cn1nc(C)c(NC(=O)c2noc3c2CCCC3)c1C	-0.8%	i	1e-09	3%	i
36	O=C(Nc1ccc(Br)c(Cl)c1)C1CC1	-0.6%	i	3.7e-08	-1%	i
37	CC(C)CNS(=O)(=O)c1ccc(CCC(=O)NCc2ccco2)cc1	2.5%	i	1e-09	-2%	i
38	CCCn1c(SCC(=O)N2CCCC2)nc2c1c(=O)n(C)c(=O)n2C	1.3%	i	2.5e-08	1%	i
39	Cc1ccc(CNc2nc3ccccc3s2)s1	0.2%	i	5.5e-09	-9%	i
40	Cn1cc(S(=O)(=O)CC(=O)Nc2ccc3c(c2)OCO3)c2ccccc21	-0.8%	i	5.9e-09	5%[11.4 µM]	i
41	O=C(CN1CCCc2ccccc21)NCc1ccc2c(c1)OCO2	-1.5%	i	5.9e-09	20%	i
42	c1cncc(-c2noc(-c3ccco3)n2)c1	3.4%	x	x	u	x
43	O=C(c1ccc(S(=O)(=O)N2CCOCC2)cc1)N1CCN(c2ccccc2)CC1	3.1%	x	x	13%	x
44	C=CCn1c(=O)c(C(=O)Nc2ccccc2O)c(O)c2ccccc21	8.0%	i	1e-09	u	i
45	c1nc2sc3c(c2c2nnnn12)CCCC3	-0.8%	i	2.9e-08	11%	i
46	CCOC(=O)Cn1nc(-c2ccc(C)cc2)ccc1=O	-0.5%	i	3.5e-08	7%	i
47	CCCOCCOC(=O)c1[nH]c2c(c1C)C(=O)CC(c1cc(OC)ccc1OC)C2 (configuration not stated)	-5.4%	x	x	u	x
48	O=C(Nc1ccc2c(c1)OCO2)N1CCN(C(=O)C2CCCO2)CC1 (configuration not stated)	-0.2%	i	3.4e-08	-4%	i
49	C(=C/c1ccccc1)/c1ccccc1	2.0%	x	x	3%	x
50	COc1ccccc1-c1nnc2sc(-c3cnccn3)nn12	0.2%	i	9.6e-09	0%	i
51	N#Cc1cccc(-c2nc(Nc3ccncc3)c3ccccc3n2)c1	8.3%	i	4.5e-08	1%	i
52	COc1cccc(C2=NOC(C(=O)N3CCN(Cc4ccccc4)CC3)C2)c1OC (configuration not stated)	0.0%	i	1.1e-08	19%	i
53	CCc1ccc(-c2nc(CN3CCC(C(=O)N4CCN(c5ccccc5)CC4)CC3)c(C)o2)cc1	-1.2%	i	3.1e-08	5%	i
54	COC(=O)N1CCC2(CCCN(c3cccc(-c4ccccc4)c3)C2)CC1	2.1%	i	1e-09	0%	i
55	CS(=O)CCC(NS(=O)(=O)c1ccccc1)C(=O)O (configuration not stated)	-1.9%	i	4.3e-09	1%	i
56	N#CC1=C(C2CC2)CC(c2ccccc2)C(C#N)=C1N (configuration not stated)	6.9%	i	4.8e-08	x	i
57	COc1cc(C)nc(N2CCCC(C(=O)NC3CCC(C)CC3)C2)n1 (configuration not stated)	1.7%	i	1.3e-08	4%	i
58	CCOC(=O)CSc1nc(C)cc(=O)[nH]1	-1.3%	i	1.2e-09	4%	i
59	O=C1NC2(CCOc3ccccc32)C(=O)N1CC(=O)N(Cc1ccccc1)C1CCS(=O)(=O)C1 (configuration not stated)	-0.5%	i	1.5e-08	u	i
60	CCOC(=O)CN(C(=O)CSc1nnc2c(n1)[nH]c1ccccc12)c1ccccc1	-2.2%	i	1.6e-09	23%	i
61	O=c1c(-c2ccc3c(c2)OCCO3)coc2cc(O)cc(O)c12	4.6%	i	1.9e-08	u	i
62	COc1ccc(NC(=O)C2CCN(c3cc(-c4ccccc4)nc4ncnn34)CC2)cc1OC	3.1%	i	2.2e-08	6%	i
63	Cc1ccc(N2CCN(C(=O)c3ccccc3)CC2)c(C)c1	-1.1%	i	1.3e-09	10%	i
64	Cc1ccc(-c2noc(CCCC(=O)N3CCOCC3)n2)cc1	-1.4%	i	7e-09	3%	i
65	CCOC(=O)C1CCN(C(=O)COc2ccc(Br)cc2)CC1	-2.7%	i	3.8e-09	4%	i
66	O=C(Nc1ccccc1N1CCCC1)c1ccc(Br)o1	-2.1%	i	7.9e-09	25%	i
67	O=C(CSc1nc(Nc2ccccc2)nc(N2CCOCC2)n1)N1CCCC1	-1.7%	i	5.4e-08	8%	i
68	NS(=O)(=O)c1ccc(CCNC(=O)c2cncc(Br)c2)cc1	-0.5%	i	8.5e-09	9%	i
69	COc1cccc(-c2nc(CS(=O)(=O)CC(=O)Nc3c(C)cccc3C)c(C)o2)c1	-2.5%	x	x	9%	x
70	CC(=O)[C@H]1[C@H](C#N)C[C@H]2[C@@H]3CC=C4C[C@@H](O)CC[C@]4(C)[C@H]3CC[C@@]21C	x	i	1e-09	x	i
71	O=S(=O)(/N=C(\c1ccccc1)N1CCOCC1)c1cccs1	-2.4%	i	4.1e-09	-1%	i
72	O=c1cc[nH]c2c(C(F)(F)F)cccc12	-1.6%	i	3.6e-09	0%	i
73	CC(C)(C)NC(=O)C(c1ccco1)N(C(=O)Cn1nnc(-c2ccc(F)cc2)n1)c1ccccc1F (configuration not stated)	1.7%	i	3e-09	24%	i
74	CC(=O)OC1(C(F)(F)F)Oc2ccccc2NC1=O (configuration not stated)	-0.5%	x	x	-6%	x
75	O=c1c2c3nc4ccccc4nc3n(CC3CCCO3)c2ncn1CCc1ccccc1 (configuration not stated)	1.2%	i	6.7e-09	u	i
76	C=CCn1c(Cc2nc3ccccc3[nH]2)n[nH]c1=S	-2.9%	i	4.6e-08	13%	i
77	Cc1nc2nc[nH]n2c(=O)c1NC(=O)CCc1ccccc1	-0.7%	i	3.5e-08	2%	i
78	Cc1ccc(S(=O)(=O)N2CCCC(C(=O)NCc3ccccn3)C2)cc1 (configuration not stated)	-1.9%	i	2.9e-08	6%	i

Screen by screen, quoted from above.
Entries 63 to 74 in TSHR ag read 10%, 3%, 4%, 25%, 8%, 9%, 9%, x, -1%, 0%, 24%, -6%
